Bioassay records: PubChem, several laboratories
YopH inh: YopH (Yersinia) phosphatase inhibition; inhibition, %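 (about 10 µM by stock and volumes)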; AID 898; 140,000 tested, 0.16% active; fluorescence Ex485/Em525;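 active means inhibition of 50% or more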;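 further: controls were vehicle for no effect and minimum signal wells for full effect; inactives centre near -20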
Arbovirus inh: blocks arbovirus infection. arbovirus infection cell-based antiviral screen. inhibition, % at 10 µM. 200,000 tested, 0.37% active. AID 1251;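 active means inhibition from about 30%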;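 further: bluetongue infection of BSR cells; cell survival read as ATP light after 72 h; 0% = infected wells without compound and 100% = uninfected wells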
Mtb betalactam: beta-lactam sensitization of Mtb H37Rv; M. tuberculosis H37Rv growth with meropenem, percent inhibition; hits of this screen are not shown here; inhibition, % at 25 µM; 330,000 tested, 0.27% active;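 active means about 74% or more and at least 40 points above the plate without the antibiotic, then above 30% in a dose series; inconclusive means first-round hits that could not be retested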;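 further: growth measured after seven days incubation then overnight dye step; 0% = bacteria only wells and 100% = bacteria with antibiotic; twin plates without the antibiotic show which effects depend on it; some results filed as inactive read as strong as hits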
Mtb H37Rv: M. tuberculosis H37Rv growth inhibitors, H37Rv strain (AID 1626); 220,000 tested, 0.95% active; M. tuberculosis H37Rv growth inhibition; higher % means a stronger effect; one-dose inhibition, % at 10 µM; IC50 in µM for titrated hits;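 active means confirmed in a dose series; inconclusive means inhibition above 80% but not taken into the dose series; inactive means below 80% or under 30% at every dose of the series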;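 further: bacteria incubated seven days before Alamar blue readout; 0% = bacteria only wells and 100% = bacteria with antibiotic wells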
RecA intein inh: blocks M. tuberculosis RecA intein splicing | P9WHJ3 | cell-free RecA intein splicing, fluorescence | inhibition, %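 (about 9 µM by stock and volumes)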 | 290,000 tested, 0.75% active | AID 2221; in the data active means inhibition above about 30%; inconclusive means no clear call, values can overlap the other calls;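 further: 0% = vehicle wells and 100% = reference inhibitor control wells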
Target sequence (P9WHJ3 whole entry, looked up): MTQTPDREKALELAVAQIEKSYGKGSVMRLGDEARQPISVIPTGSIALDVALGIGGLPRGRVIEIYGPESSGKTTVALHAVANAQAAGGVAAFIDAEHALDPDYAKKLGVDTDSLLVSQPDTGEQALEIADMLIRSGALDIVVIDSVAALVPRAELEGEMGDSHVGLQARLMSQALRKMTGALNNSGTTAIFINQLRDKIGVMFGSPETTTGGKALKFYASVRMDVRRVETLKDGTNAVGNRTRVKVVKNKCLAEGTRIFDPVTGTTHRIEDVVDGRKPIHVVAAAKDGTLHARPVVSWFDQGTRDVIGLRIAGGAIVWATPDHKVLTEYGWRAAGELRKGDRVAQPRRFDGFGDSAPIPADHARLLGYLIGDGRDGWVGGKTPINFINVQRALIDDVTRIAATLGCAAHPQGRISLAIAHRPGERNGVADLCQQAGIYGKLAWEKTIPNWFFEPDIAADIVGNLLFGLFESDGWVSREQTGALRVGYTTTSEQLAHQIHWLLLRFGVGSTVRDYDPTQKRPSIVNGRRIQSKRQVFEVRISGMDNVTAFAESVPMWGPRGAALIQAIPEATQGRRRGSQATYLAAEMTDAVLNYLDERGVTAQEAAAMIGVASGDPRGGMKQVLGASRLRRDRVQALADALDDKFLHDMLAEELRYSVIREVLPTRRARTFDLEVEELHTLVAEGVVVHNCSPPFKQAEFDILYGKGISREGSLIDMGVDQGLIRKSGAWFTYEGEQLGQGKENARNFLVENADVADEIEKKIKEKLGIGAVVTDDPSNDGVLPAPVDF
Arbovirus inh repeat: recorded beside Arbovirus inh, whose call it bears; inhibition, %; measured here: 10K subset replicate screen; many hits read low in the repeat;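 first of two repeat runs on a subset; 0% = infected and 100% = uninfected wells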
Numbers without * were called inactive; i = inactive; ? = inconclusive; . = no result given. A portion of the library; rates above refer to the full screens.

SMILES	YopH inh	Arbovirus inh	Mtb betalactam	Mtb H37Rv	RecA intein inh	others
COc1ccccc1Nc1ccc(S(=O)(=O)N2CCCCC2)cc1[N+](=O)[O-]	-49	-3	3	1%	1.0
Cc1ccccc1NC(=O)CN1C(=O)S/C(=C/c2cccnc2)C1=O	.	.	0	.	-1.8
COc1cc(S(=O)(=O)n2ccc(C)n2)c(OC)cc1Cl	-10	-1	-2	-6%	0.4
CCCCn1c(SCC(=O)Nc2ccc3c(c2)CCC3)nc2ccccc2c1=O	-36	-7	0	0%	1.2
COc1ccccc1C(=O)N1CCN(C(=O)c2oc3ccc(C)cc3c2C)CC1	.	.	-9	.	3.8
O=C(NCc1ccccc1Cl)c1ccc(CSc2nc3ccncc3[nH]2)cc1	.	.	12	9%	-0.7
CCOC(=O)N1CCN(C(=O)c2ccc(CS(=O)Cc3ccccc3Cl)o2)CC1 (stereo unspecified)	.	.	-3	.	2.9
CCN(CC)C(=O)c1ccc2c(=O)n(CCOC)c(=S)[nH]c2c1	-18	-5	-6	-5%	2.8
COc1cccc(-c2nnc(SCc3cccnc3)o2)c1	-22	6	-3	6%	0.2
COc1ccc([C@@H]2C(C#N)=C(N)S[C@@H](c3ccccc3)[C@@H]2[N+](=O)[O-])cc1	-31	-17	3	6%	6.0
COc1cccc(C(=O)NC2CC3CCCC(C2)N3CC(=O)Nc2ccc(N(C)C)cc2)c1 (stereo unspecified)	5	2	95	28%	-2.3	Arbovirus inh repeat=2
CCCCCn1cnc2sc(-c3ccccc3)cc2c1=O	-19	-10	49	15%	4.7
CC(C)N(CC#CCC(O)(c1ccccc1)c1ccccc1)CCO	.	-7	.	-6%	5.5
CCC(C)NC(=O)Nc1ccccc1F (stereo unspecified)	-24	-2	0	1%	-2.8
CN(c1ccc(C(=O)NCc2ccco2)cc1)S(C)(=O)=O	-27	12	-2	-7%	5.7
Cc1ccc(C(=O)N2CCN(Cc3nc4sc5c(c4c(=O)[nH]3)CCCC5)CC2)cc1	.	.	96	.	1.1
Cc1cc2c(c(=O)n1Cc1ccccn1)C(c1ccc3c(c1)OCO3)C(C#N)=C(N)O2 (stereo unspecified)	-44	1	5	-10%	-4.2
COc1cccc(C(=O)Nc2cccc(-c3nnc(-c4ccco4)o3)c2)c1	-15	-4	-9	6%	-1.0
O=C(NC1CCCC1)C(c1ccsc1)N(Cc1ccccc1)C(=O)Cc1cccs1 (stereo unspecified)	-16	-8	3	.	0.8
Nc1cc(=O)[nH]c(SCC(=O)Nc2ccccc2Sc2ccc(Cl)cc2)n1	.	2	0	-5%	5.2

The list goes on (2 carried over from the part before).
SMILES	YopH inh	Arbovirus inh	Mtb betalactam	Mtb H37Rv	RecA intein inh	others
O=C(NC1CCCC1)C(c1ccsc1)N(Cc1ccccc1)C(=O)Cc1cccs1 (stereo unspecified)	-16	-8	3	.	0.8
Nc1cc(=O)[nH]c(SCC(=O)Nc2ccccc2Sc2ccc(Cl)cc2)n1	.	2	0	-5%	5.2
CCCc1ccc(OCC(O)CN2CCN(c3ccccc3)CC2)cc1 (stereo unspecified)	-2	-6	22	11%	5.0	Arbovirus inh repeat=2
CCn1c(=NC(=O)C2COc3ccccc3O2)sc2c(OC)ccc(OC)c21 (stereo unspecified)	.	.	2	3%	-0.3
CCCc1nnc(N2C(=O)c3cccc4cccc(c34)C2=O)s1	-21	7	-5	-8%	2.5
Cc1csc(SCC(=O)Nc2sc3c(c2C#N)CCC3)n1	-136	-20	-8	-9%	4.0
O=C(CN(Cc1ccc(Br)cc1)S(=O)(=O)c1ccccc1)NCc1ccncc1	.	.	-14	.	3.0
COc1ccc(-n2c(=S)[nH]c3cc(C(=O)Nc4ccccc4OC)ccc3c2=O)cc1	0	-15	8	7%	-2.0
CC(Sc1nnc(Cc2cccs2)n1C1CCCCC1)C(N)=O (stereo unspecified)	-161	4	2	-6%	1.0
CCOc1cc(S(=O)(=O)NCc2ccccc2)ccc1F	-41	-1	4	70%	0.5
CC1(C)CC(=O)N(c2ccccc2)C1(C)O (stereo unspecified)	14	5	2	-9%	0.2	Arbovirus inh repeat=1
COC(=O)[C@@H]1C[C@@H]2CC[C@@H](O)C[C@@H]2N1Cc1ccc(OC)cc1	.	.	-8	14%	0.5
C=CCn1c(SCC(=O)C(C)(C)C)nnc1-c1cccs1	-29	0	-2	0%	-2.3
COc1ccc(CCNC(=O)COC(=O)c2cnccn2)cc1	-11	0	11	-16%	-0.7
COc1ccc(C2OC(=O)C(C)(C)C(=O)C2(C)C)cc1OC (stereo unspecified)	.	.	-3	0%	1.1
CCCCn1c(-c2c(Cl)c(C)nn2C)n[nH]c1=S	.	2	-6	1%	-0.1
COc1ccc(CN(C)C(=O)c2ccc3c(=O)n4c(nc3c2)CCC4)c(OC)c1	.	.	-1	.	-1.5
O=C(/C=C/c1ccc(F)cc1)Nc1nc2ccccc2[nH]1	-23	-4	33	3%	-0.5
Cc1cc(-n2nc3ccccc3n2)c(O)c([N+](=O)[O-])c1	.	.	-5	.	-0.1
CC(c1nnc(SCC(=O)Nc2cc([N+](=O)[O-])ccc2F)n1Cc1ccccc1)N(C)C (stereo unspecified)	.	.	-2	.	1.6
Cc1cc(=O)oc2cc3c(cc12)CCCN3	.	.	-4	.	i
COc1cc(NC(=O)C2CCC(CNc3c(N4CCCCC4)c(=O)c3=O)CC2)cc(OC)c1 (stereo unspecified)	10	1	-5	1%	-2.6	Arbovirus inh repeat=0
O=C(COC(=O)Cc1ccc(F)cc1)NCc1ccco1	.	4	5	0%	1.6
CC(C(=O)NC1C(=O)N2C(C(=O)O)=C(CSc3nnnn3C)CSC12)n1cc(Br)cn1 (stereo unspecified)	.	7	25	-7%	0.7
Cc1ccc(N(CC(=O)NCc2ccc(Cl)cc2)S(C)(=O)=O)cc1	.	.	-5	.	0.6
COc1ccc(CN(C(=O)c2nsc(Cl)c2Cl)C(C(=O)NC2CCCC2)c2ccc(OC)cc2)cc1 (stereo unspecified)	-23	2	-5	14%	11
CCOCCCNC(=O)CCn1ccc2cc(S(=O)(=O)N3CCCC3)ccc21	.	.	4	.	1.3
COC(=O)c1cn(C(=O)c2ccccc2F)nc1N	-26	-2	-10	-7%	5.8
CC(C)(C)c1cc(N)n(-c2ccc(C(=O)O)cc2)n1	.	19	0	3%	12
O=C(COC(=O)c1cc([N+](=O)[O-])ccc1N1CCOCC1)Nc1ccc(Cl)cc1	.	.	-3	.	2.7
CCn1c(SCc2ccc(F)cc2)nnc1C1CCN(S(=O)(=O)c2ccc(OC)cc2)CC1	-39	-1	19	-2%	1.8
CC(C)(C)NC(=O)C(=O)NNC(=O)COc1ccccc1	-34	0	14	17%	-2.6
COc1ccc(C2=NOC(C(=O)NCC(C)C)C2)cc1 (stereo unspecified)	-42	4	-12	-3%	2.2
CC1CCN(Cc2c(C(=O)N/N=C/c3cc(Br)ccc3O)nnn2-c2nonc2N)CC1	.	.	28	.	-2.9
Cc1cc(S(=O)(=O)NCCCN2CCOCC2)ccc1F	-42	0	-3	-5%	1.3
Cc1nc2ccccn2c1C(=O)NN	-29	-6	6	9%	-3.9
COC(=O)c1c(NC(=O)CN2CCN(S(=O)(=O)c3ccccc3)CC2)sc2c1CCC(C)C2 (stereo unspecified)	-16	-11	3	1%	0.6
COc1cccc(-c2cc(C(=O)Nc3cccc(O)c3)no2)c1	-39	2	8	9%	3.5
O=C(C1CCN(S(=O)(=O)c2cccnc2)CC1)N1CCN(C2CCCC2)CC1	-9	-1	-5	-5%	-0.4
O=C(CN1C(=O)c2ccccc2C1=O)N1CCN(C(=O)c2ccco2)CC1	-9	6	-5	5%	0.1
CC(=O)c1cccc(NC(=O)c2ccc3c(Cl)c4c(nc3c2)CCCC4)c1	-15	0	1	-6%	0.5
CC(=O)c1sc(Nc2cccc(C)c2)nc1C	.	-8	-1	7%	-2.2

Sorted by count of non-hydrogen atoms (smallest number first): seven of the compounds above
SMILES	YopH inh	Arbovirus inh	Mtb betalactam	Mtb H37Rv	RecA intein inh	others
COC(=O)c1cn(C(=O)c2ccccc2F)nc1N	-26	-2	-10	-7%	5.8
COc1ccc(C2=NOC(C(=O)NCC(C)C)C2)cc1 (stereo unspecified)	-42	4	-12	-3%	2.2
CC(C)(C)NC(=O)C(=O)NNC(=O)COc1ccccc1	-34	0	14	17%	-2.6
CC(=O)c1cccc(NC(=O)c2ccc3c(Cl)c4c(nc3c2)CCCC4)c1	-15	0	1	-6%	0.5
O=C(C1CCN(S(=O)(=O)c2cccnc2)CC1)N1CCN(C2CCCC2)CC1	-9	-1	-5	-5%	-0.4
CC(C(=O)NC1C(=O)N2C(C(=O)O)=C(CSc3nnnn3C)CSC12)n1cc(Br)cn1 (stereo unspecified)	.	7	25	-7%	0.7
CCn1c(SCc2ccc(F)cc2)nnc1C1CCN(S(=O)(=O)c2ccc(OC)cc2)CC1	-39	-1	19	-2%	1.8

(list continues)
SMILES	YopH inh	Arbovirus inh	Mtb betalactam	Mtb H37Rv	RecA intein inh	others
CCN(CC)C(=O)c1oc2ccc(S(=O)(=O)N3CCCCCC3)cc2c1C	-27	-2	-9	1%	-2.1
CCNc1nc(NC(C)CC)nc(Oc2ccc(OCC)nn2)n1 (stereo unspecified)	.	-11	1	-6%	-2.9
COc1cccc(-n2c(SCC(=O)O)nnc2-c2cccnc2)c1	-52	3	1	-2%	-0.4
Cc1cc(Cl)cc(Cl)c1OCCOc1cccc2cccnc12	-5	-5	73	13%	10
O=C(CSc1nnc(Nc2ccccc2F)s1)c1cc2ccccc2o1	-12	-8	5	1%	2.8
Nc1ncc2c(n1)CCN(c1ccc([N+](=O)[O-])cc1)C2	.	.	-2	.	1.6
N#Cc1cc([N+](=O)[O-])ccc1NCCN1CCOCC1	.	-4	3	-7%	-1.9
Nc1c(C(=O)Nc2ccccc2F)sc2nc(Cc3ccccc3)cc(C(F)(F)F)c12	4	-5	3	-3%	-16
O=C(c1c[nH]c2ccc(S(=O)(=O)N3CCOCC3)cc2c1=O)N1CCCC1	3	3	-14	-6%	-2.0
Cc1ccc(N(C(=O)c2csnn2)C(C(=O)NCc2ccccc2)c2ccccn2)cc1 (stereo unspecified)	.	.	-4	.	-0.6
O=c1c2ccccc2cnn1CCOc1ccccc1	-21	-1	0	13%	-3.3
COc1cc(/C=C/C(=O)OCC(=O)Nc2nnc(-c3ccccc3)o2)cc(OC)c1OC	.	.	2	.	-1.6
COc1cccc(C(C2=C(O)CC(C)(C)CC2=O)C2C(=O)CC(C)(C)CC2=O)c1 (stereo unspecified)	-26	3	?	6%	-4.4
CCOC(=O)c1cnc2c(C)c(Cl)ccc2c1N1CCOCC1	-41	2	1	.	1.4	Arbovirus inh repeat=-8
O=C(CCn1nnc2ccccc21)OCC(=O)c1ccc([N+](=O)[O-])cc1	.	.	3	.	0.6
CCOC(=O)C(C)(C)Oc1cccc2c1S(=O)(=O)c1ccccc1-2	.	.	64	.	0.6
Cc1nc2ccccc2c(=O)n1NC(=O)c1ccccc1F	.	.	-2	.	1.5
CCCn1c(C(C)C)n[nH]c1=S	.	.	-8	-2%	-0.9
CCSc1nnc(C)c2ccccc12	-56	-6	-7	-5%	1.3
CCCN1Cc2cccc(C(=O)Nc3ccc4c(c3)OCO4)c2C1=O	-25	0	4	.	3.9
O=C(COC(=O)c1ccc(S(=O)(=O)Nc2ccccc2)cc1)NC1CCCC1	.	-11	-9	3%	1.6
COc1ccc(NC(=S)N2CCN(c3ccccn3)CC2)cc1	-33	-1	-2	4%	-1.2
O=C(CN(C(=O)CCC(=O)Nc1ccccn1)c1ccc(F)cc1)NCc1ccc(F)cc1	.	.	1	.	-2.9
Cc1noc(C)c1CSc1nc2ccccc2n1CCc1ccccc1	-24	-10	10	18%	7.2
CS(=O)(=O)N(CC(=O)Nc1ccc(S(=O)(=O)N2CCOCC2)cc1)c1ccccc1Cl	.	0	-3	0%	0.2
N#C/C(=C\c1ccc(-c2ccccc2[N+](=O)[O-])o1)C(=O)Nc1nc(-c2cccs2)cs1	-24	10	16	0%	-0.6
Cc1ccccc1N(Cc1cc(=O)[nH]c2ccccc12)C(=O)C(C)C	.	.	-4	.	-1.2
Cc1c(Cl)cccc1NC(=O)CCN1CCCCC1	-21	6	2	-7%	1.0	Arbovirus inh repeat=3
COc1ccc(-c2cc(C(=O)N3CCCCCC3)no2)cc1	.	.	8	.	1.2
O=C(CSc1nc2ccccc2c(=O)[nH]1)NCc1ccc(Cl)cc1	-7	4	100	.	-0.9
O=c1c2ccccc2cnn1Cc1n[nH]c(=S)n1-c1ccccc1	-22	2	-5	2%	-1.6
Cc1ccc(S(=O)(=O)N2CCN(S(=O)(=O)N3CCOCC3)CC2)c(C)c1	-22	-1	4	-4%	1.0
OC(CSc1ccc(F)cc1)CN1CCN(c2ccccc2)CC1 (stereo unspecified)	.	-4	-6	3%	-0.9
